Ab BasE inh = BasE siderophore enzyme inhibitors, primary screen, biochemical, Acinetobacter baumannii ATCC 17978, fluorescence polarization; purified BasE, fluorescence polarization binding displacement; inhibition, % (concentration not given with the values); hit rate 0.1% among 84,000;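 active = both replicates above 25% with normal brightness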;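 note: 0% = negative plate control signal and 100% = positive plate control signal; stock transfer was 100 nL into about 30 µL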
KSHV LANA nucl = inhibitors of KSHV LANA-nucleosome binding, primary screen, biochemical, fluorescence polarization, FITC-LANA1-23, chicken nucleosomes; hit rate 0.3% among 51,000; z-score (concentration not given with the values); FITC-LANA1-23 / chicken nucleosome fluorescence polarization; active compounds read low; AID 720717, 2013;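 active = both repeat wells score below -2 in polarization z-score versus plate sample wells, excluding overly bright wells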;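 note: 100 nL library stock added to about 30 µL; numbers are from one replicate; some results filed as inactive read as strong as hits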
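Test system: purified chicken nucleosomes with FITC-labelled LANA N-terminal peptide (1-23); Input: 240 nM purified chicken nucleosomes (480 nM peptide binding sites), final; Medium: TEN-BT buffer, pH 7.5; Timing: 10–45 min, room temperature; Technique: fluorescence polarization, 480 nm excitation, 535 nm parallel and perpendicular emission; Replication: duplicates.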
Active calls of the source: *; x = no result given. A portion of the library, so the mix of outcomes need not match the whole.

Results follow in this order: Ab BasE inh, KSHV LANA nucl
O=C(O)CSc1nnc2c(n1)OC1(CCCCC1)Nc1ccccc1-2
  3.6, -0.56
OCCOCCN1CCN(Cc2ccc(Cl)cc2)CC1
  -2.6, 0.098
C=CCNCc1cc2cc(OCC)ccc2[nH]c1=O
  -0.7, 0.39
COC(=O)NC(Nc1ccccc1)C(=O)c1ccccc1 (stereo unspecified)
  1.1, -0.098
CCOC(=O)Nc1cccc2ccccc12
  -1.8, x
O=C(Cn1cnc2c(oc3ccccc32)c1=O)Nc1cccc(C(F)(F)F)c1
  -3.8, 1.7
Cc1ccn2nc(C(=O)OCC(=O)N(Cc3ccccc3)Cc3ccccc3)nc2n1
  -2.2, x
Nc1ccccc1SCC(=O)Nc1ccccc1
  3.7, -0.36
Cc1cnc(NC(=O)c2cccc(OC(F)F)c2)s1
  -1.7, x
OC1CCCc2c(OCc3coc(-c4cccs4)n3)cccc21 (stereo unspecified)
  2.2, x
C=CC#CC(C)(C)c1ccc(O)c(C)c1
  -0.2, 0.22
O=C1CCN(CC(=O)Nc2ccc(-c3ccccc3)cc2)CC1
  -2.5, x
O=C(Nc1ccc(N2CCOCC2)cc1)c1ccc2c(=O)n3c(nc2c1)CCC3
  -1.3, x
O=S(=O)(c1ccccc1)c1ccc(I)cc1
  0.9, 0.43
Cc1ccc(-c2nnc(NC(=O)c3cc4c([nH]c5ccccc54)c(C)n3)s2)cc1
  -0.2, x
C#CCSc1nc(C)cc(C(=O)OCC)c1C#N
  1.6, -0.16
CN(C)C(CNC(=O)Cc1c[nH]c2ccccc12)c1ccco1 (stereo unspecified)
  1.9, x
CNC(=S)C12CC3CC(CC(C3)C1)C2
  0.7, x
CC(C)(C)c1nc(SCc2nc(-c3cccc(-n4cccc4)c3)no2)n[nH]1
  1.8, x
C=CCNC(=O)c1cc2c(C)nn(-c3ccc(F)cc3)c2s1
  -6.6, x
O=C(CSc1nnc(-c2ccco2)c(-c2ccco2)n1)N1c2ccccc2Sc2ccc(Cl)cc21
  2.4, 1.5
Cc1csc2ncnc(N3CCN(C(=S)NCC4CC4)CC3)c12
  4.0, x
C=CCSc1nnc2n1CCCN2C(=O)Nc1cccc(Cl)c1
  0.5, x
CCC1CCCCN1C(=O)c1ccccc1F (stereo unspecified)
  -1.2, 1.1
COc1ccc(S(=O)(=O)N2CN3CCN(C3)C2)cc1OC
  1.9, -1.6
Cc1oc(N)c(C#N)c1C
  1.5, 0.71
CCOC(=O)c1sc2nc(CSc3ccccc3)nc(Nc3ccn(C)n3)c2c1C
  -0.1, x
O=C(CSCc1cnn(-c2ccccc2)c1-n1cccc1)NC1CCCCCC1
  -1.2, -0.75
O=C(Nc1ccc2c(c1)oc1ccccc12)c1cccc(N2C(=O)CCC2=O)c1
  -6.0, 2.7
O=c1nc2n(c3ccsc13)CC(O)=C2c1nc2ccccc2[nH]1
  2.5, x
CN(C1CCCCC1)S(=O)(=O)Cc1ccccc1
  -2.8, -0.61
CCN(CC)S(=O)(=O)c1cc(C(=O)OCC(=O)c2ccc3c(c2)NC(=O)CO3)ccc1Cl
  0.0, x
Cc1ccc(S(=O)(=O)N2CCCCC2C(=O)NCCOc2ccccc2)cc1 (stereo unspecified)
  -0.5, x
CCCC(=O)Nc1c(C)nn(C(=O)CCC)c1C
  0.7, -0.23
N#CCc1csc(-c2ccccc2)n1
  0.1, x
CCCOC(=O)CSc1ncnc2sc(C)c(C)c12
  0.9, 0.53
O=C(Nc1ccc(Nc2ccccc2)cc1)C1CC1
  1.0, -0.3
CCOc1ccc(C(=O)Nc2ccc(-c3nc4ncccc4o3)cc2)cc1
  2.3, 0.043
CCSc1nc2c(c(=O)[nH]1)C1(CCCC1)Cc1ccccc1-2
  -1.5, x
COc1ccc(-n2c(CNc3ccccc3Cl)nnc2SCC(N)=O)cc1
  -5.2, -1.7
c1ccc2c(c1)Oc1ccccc1S2
  -0.5, 0.69
O=c1ccoc2ccc(Cl)cc12
  1.7, -0.7
O=C(CSc1ncnc2c1cnn2-c1ccccc1)c1ccccc1
  0.7, -0.5
COC(=O)c1ccc2c(=O)n3nc(NCc4ccccc4)sc3nc2c1
  0.6, 0.47
c1ccc2[nH]c(C3CCN(CC4OCCO4)CC3)nc2c1
  -0.2, 0.25
CCCS(=O)(=O)N1CCC(C(=O)NCc2ccc(F)cc2)CC1
  -0.3, 0.11
CCc1n[nH]c(=S)n1/N=C/C(C)=C\c1ccccc1
  1.4, 0.73
NS(=O)(=O)c1ccc(NC(=O)Cn2cc(C(F)(F)F)ccc2=O)cc1
  1.4, x
Cc1ccc(CNC(=O)c2ccc(OCC(C)C)cc2)n1C
  1.5, x
CCN(CC(=O)NCc1ccc(F)cc1)Cc1cc(=O)n2ccsc2n1
  1.9, x
N#CCCSc1nnc2c(Cl)cc(Cl)cn12
  -0.4, x
O=c1cc(CSc2ncn[nH]2)nc2sccn12
  -0.8, 0.66
CCOC(=O)c1sc(N)c(C#N)c1CSC1=N/C(=C\c2ccco2)C(=O)N1c1ccc(OC(F)F)cc1
  -10.0, x
Cc1ccccc1COC(=O)C1CCN(S(=O)(=O)c2ccc3c(c2)OCCO3)CC1
  3.1, x
Cc1ccc(-c2ncnn2-c2sc3c(c2C#N)CCCCC3)cc1
  0.1, -0.7
COC(=O)CN(C)C(=O)c1cc(OC)c(OC)c(OC)c1
  -0.4, 0.47
CCOC(=O)C1CCN(C(=O)/C=C/c2c(Cl)nc3sccn23)CC1
  3.5, x
O=C(Nc1ccc(N2CCOCC2)cc1)c1oc2ccccc2c1CSc1ncn[nH]1
  1.1, x
CN1CCN(Cc2c(O)ccc3cc(-c4nc5ccccc5n4C)c(=O)oc23)CC1
  5.0, 0.66
CCOC(=O)C(C(=O)c1ccccc1)C1(O)C(=O)c2ccccc2C1=O (stereo unspecified)
  1.9, x

Continued.
| Molecule | Ab BasE inh | KSHV LANA nucl |
| --- | --- | --- |
| COC(=O)Cc1cnc(NC(=O)CSc2nc(C(C)C)cc(=O)[nH]2)s1 | -0.4 | -0.67 |
| CCOCC(=O)Nc1cc(C)cc(C)c1 | 0.4 | -0.27 |
| Brc1snnc1-c1ccccc1 | x | -0.95 |
| CCn1c(C(=O)N2CCCC(C(=O)NC3CCCC(C)C3C)C2)cc2sccc21 (stereo unspecified) | 0.3 | 2.5 |
| CCc1ccc2[nH]c(=O)c(CN(Cc3ccco3)C(=S)NCC(C)C)cc2c1 | 0.7 | 0.39 |
| O=C(O)CNC(=S)N(Cc1ccco1)Cc1ccccc1Cl | 0.3 | -0.7 |
| CN(C)c1ncnc(Cl)c1N | 2.2 | 0.54 |
| O=C(c1cc2ccccc2cc1O)N1CCCCCC1 | -1.1 | 1.6 |
| COc1ccc2oc3nc(=O)c4ccccc4c-3cc2c1 | 0.0 | 1.2 |
| Cc1ccc(-c2cc(C(F)(F)F)n3ncc(C(=O)OC(C)C)c3n2)cc1 | 2.3 | x |
| N#Cc1ccccc1Cn1c(=O)n(-c2ccccc2)c(=O)c2ccc(C(=O)NCc3ccco3)cc21 | 2.3 | -0.55 |
| CC(=O)NC(=O)/C(C#N)=C/N1CCN(Cc2ccccc2)CC1 | 5.6 | -0.47 |
| OCCCN=Cc1ccc(Cl)cc1Cl | 0.9 | -0.35 |
| O=C(c1ccc(C(=O)N2CCCC2)cc1)N1CCCC1 | x | -1.4 |
| CC(C)(C)C1(C)OC(=O)C(=Cc2ccc3c(c2)OCO3)C(=O)O1 (stereo unspecified) | -0.5 | -0.6 |
| CCOc1ccc(C(=O)Nc2cccc(-c3ccc4nncn4n3)c2)cc1 | -1.1 | 2.2 |
| CC1CCCCN1C(=O)CSc1nnc(CNc2ccc(Cl)cc2)o1 (stereo unspecified) | 4.2 | 0.33 |
| CCOc1ccc(-n2c(-c3ccco3)nc3c(cnn3-c3ccc(Cl)cc3)c2=O)cc1 | 0.0 | -0.82 |
| CC(C)Oc1ccc(CNC(=O)C2CCCCC2)cc1 | 0.2 | 0.67 |
| COc1cc(/C=N/NS(=O)(=O)c2ccc(Br)cc2)cc(OC)c1O | 4.0 | x |
| CCCCOCC1CN(c2ccccc2)C(=O)CS1 (stereo unspecified) | -2.7 | 3.4 |
| O=C(COc1ncnc2ccccc12)NC1CCCC1 | 3.6 | x |
| CCOC(=O)c1oc2cc(O)c(CC)cc2c(=O)c1-c1cscn1 | 0.7 | x |
| COc1ccc(C)cc1NC(=O)CN(C)Cc1nc2ccccc2c(=O)[nH]1 | 1.9 | x |
| CCCN1C(=O)CC(C(=O)OC)=C1C | -1.7 | 0.83 |
| CCc1ccc(Oc2coc3cc(OC(=O)C(C)C)ccc3c2=O)cc1 | -3.5 | x |
| CSc1nnc(-c2ccc(C(C)(C)C)cc2)n1C | 0.2 | x |
| CN(C(=O)CN1CCOCC1)C1(c2ccccc2Cl)CCCCC1=O (stereo unspecified) | -2.8 | x |
| CCOC(=O)c1[nH]c(=O)[nH]c1CSc1ccccn1 | 1.7 | -0.3 |
| CC(C)Cn1[nH]c(CC(=O)O)cc1=O | 2.7 | x |
| COc1ccc(OCC(O)CNC(=O)Nc2cc(C)cc(C)c2)cc1 (stereo unspecified) | 3.4 | -0.19 |
| O=S(=O)(c1ccc(N2CN(S(=O)(=O)c3ccc(Cl)cc3)c3nc4ccccc4nc32)cc1)N1CCOCC1 | -0.3 | x |
| Cc1nc2sc3c(c2c(-c2cccs2)c1C(N)=O)CCCC3 | -2.0 | x |
| COc1ccc(NC(C)=O)cc1NC(=O)c1cncn1-c1ccc(F)cc1 | 1.2 | x |
| COC(=O)C1CCN(C(=O)COc2ncnc3c(Cl)cc(Cl)cc23)CC1 | 1.6 | x |
| Nc1cccc2c1C(=O)N(CC(=O)NC1CCCc3ccccc31)C2=O (stereo unspecified) | 3.7 | x |
| Cc1nc(-c2ccccc2)sc1-c1nnc(-c2ccc(C(F)(F)F)cc2)o1 | 2.4 | -0.21 |
| COc1ccc(C)cc1NCC(=O)NC1CCCCC1 | 11 | x |
| O=S(=O)(Nc1nc2ccc(Cl)cc2s1)c1cccs1 | -2.0 | x |
| CN1C(=O)/C(=C/c2ccc(O)cc2)SC1=Nc1ccc(Cl)cc1 | -1.2 | 1.9 |
| CC(=O)Nc1ccc2sc(NC(=O)CN3CCOCC3)nc2c1 | 1.2 | 0.066 |
| NCC1CCN(Cc2ccccc2)C1 (stereo unspecified) | -1.6 | -1 |
| COC(=O)c1cc(S(=O)(=O)N(C)c2cccc(C)c2)cn1C | 1.4 | -0.41 |
| OCc1cccnc1 | x | 1.1 |
| OC(CN1CCCC1)Cn1ccc2ccccc21 (stereo unspecified) | -1.4 | -1.3 |
| Cn1c(C(=O)N(Cc2ccccc2)C(C)(C)C)cc2sccc21 | -0.4 | -0.78 |
| Cc1ccccc1NC(=O)CC1SC(=O)N(c2ccccc2)C1=O (stereo unspecified) | 0.4 | x |
| O=c1/c(=C/c2ccccc2)sc2nc(-c3ccccc3)nn12 | 1.0 | x |
| CC(C)CC(NC(N)=O)C(=O)O (stereo unspecified) | -1.7 | -0.18 |
| O=C(Nc1ccc(Cl)cc1)c1ccc2ncsc2c1 | 0.6 | x |

6 entries already listed, ordered by count of non-hydrogen atoms, low to high.
| Molecule | Ab BasE inh | KSHV LANA nucl |
| --- | --- | --- |
| C=CC#CC(C)(C)c1ccc(O)c(C)c1 | -0.2 | 0.22 |
| CCc1n[nH]c(=S)n1/N=C/C(C)=C\c1ccccc1 | 1.4 | 0.73 |
| O=C(c1cc2ccccc2cc1O)N1CCCCCC1 | -1.1 | 1.6 |
| O=C(O)CNC(=S)N(Cc1ccco1)Cc1ccccc1Cl | 0.3 | -0.7 |
| CCOC(=O)C(C(=O)c1ccccc1)C1(O)C(=O)c2ccccc2C1=O (stereo unspecified) | 1.9 | x |
| CN1CCN(Cc2c(O)ccc3cc(-c4nc5ccccc5n4C)c(=O)oc23)CC1 | 5.0 | 0.66 |

Next results.
| Molecule | Ab BasE inh | KSHV LANA nucl |
| --- | --- | --- |
| CS(=O)(=O)N1CCN(C(=S)NCc2ccc(F)cc2)CC1 | -0.4 | 0.7 |
| Cc1ccc2nc(COC(=O)c3ccc(-n4cnnn4)cc3)cc(=O)n2c1 | 0.7 | x |
| CSc1ccc(S(=O)(=O)NC2CCCC2)cc1 | 0.9 | -0.6 |
| Cc1nn(CC(O)CN2c3ccccc3Sc3ccccc32)c(C)c1Br (stereo unspecified) | -0.3 | 0.72 |
| N#CCCS(=O)(=O)c1ccc(Br)cc1 | -5.6 | -0.64 |
| O=C(NC(Cc1c[nH]c2ccccc12)C(=O)NNC1=NCCC1)c1ccccc1 (stereo unspecified) | 2.0 | x |
| CC1CN(C(=O)c2ccc(NC(=O)c3ncoc3-c3ccc4ccccc4c3)cc2)CC(C)O1 (stereo unspecified) | 1.1 | 0.74 |
| COc1ccc(NC(=O)NC(C)C2CCCO2)c(OC)c1 (stereo unspecified) | 1.2 | -0.36 |
| O=C(Cn1cnc2c(oc3ccccc32)c1=O)N1CCCC1c1ccc2c(c1)OCCCO2 (stereo unspecified) | -2.4 | x |
| Fc1ccccc1-c1noc(NCC2CCCO2)n1 (stereo unspecified) | 2.0 | 0.52 |
| O=C(OCC(=O)N1CCCC1)c1ccc(S(=O)(=O)Nc2ccccc2)cc1 | 2.8 | x |
| Cc1ccnc(N(C(=O)c2nn(C)c3c2COc2ccccc2-3)C(=O)c2nn(C)c3c2COc2ccccc2-3)c1 | 0.4 | 2.7 |
| COCCn1cnc2c1c(=O)n(CC(=O)NC(=O)NC1CCCC1)c(=O)n2Cc1ccccc1 | 1.3 | x |
| S=C(Nc1ccccc1)Nn1cnnc1 | 1.1 | -1.1 |
| N#CC(C(=O)CN1CCN(c2ccccc2)CC1)c1ccccc1 (stereo unspecified) | -0.2 | -0.63 |
| c1ccc2c(c1)nnn2-c1ncnc2sccc12 | 1.8 | x |
